Screening results (PubChem)
D2 PAM: potentiates the human D2 dopamine receptor allosterically; actives 0.23% (n = 360,000); potentiation, % (no concentration beside the values); P14416; DiscoveRx D2 beta-arrestin cells, luminescence, 90 min; 100% = 57 uM dopamine signal; AID 624464; active = potentiation of 50% or more; inconclusive = 30% to 50%; inactive = 30% or less;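 further: compound concentration not given in the record; tested on top of an EC20 dose of dopamine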
Target sequence (P14416 whole entry, looked up): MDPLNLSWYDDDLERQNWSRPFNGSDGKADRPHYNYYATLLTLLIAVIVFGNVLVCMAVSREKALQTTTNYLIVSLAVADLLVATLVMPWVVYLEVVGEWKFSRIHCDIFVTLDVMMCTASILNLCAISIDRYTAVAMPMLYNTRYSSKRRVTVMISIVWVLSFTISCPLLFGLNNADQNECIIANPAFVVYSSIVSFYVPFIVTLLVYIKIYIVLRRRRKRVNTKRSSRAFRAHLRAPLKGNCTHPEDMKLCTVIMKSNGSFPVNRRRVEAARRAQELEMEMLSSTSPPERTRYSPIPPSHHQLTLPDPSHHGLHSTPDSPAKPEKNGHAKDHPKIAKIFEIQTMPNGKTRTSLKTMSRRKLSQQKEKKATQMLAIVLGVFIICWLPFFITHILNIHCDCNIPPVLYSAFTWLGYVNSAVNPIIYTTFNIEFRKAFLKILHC
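PathHunter D2 cells, attached overnight at 37 deg C, received compound in DMSO plus dopamine at EC20 (50 nM final) for 90 min at 37 deg C. Beta-arrestin recruitment was read as luminescence after 1 h with detection reagent at ambient temperature.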
PINK1 modulator: PINK1 expression modulation. Potency, µM (titrated, usually from 76.6 µM), for the others: top-dose activation (PINK1 increase), usual class: activators. actives 0.2% (n = 410,000). PINK1 immunofluorescence, high-content cytometry, 24 h; active = well fitted activation curve with a large enough effect; inconclusive = small, poorly fitted or top-dose-only effect; inactive = flat fitted curve, though single readings scatter; cell line not stated here;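 further: potency means the concentration at half of the fitted maximal effect; % of control where 0% means no effect; nearly all actives have a fitted effect of over 65% in size; a mitochondrial uncoupler was the plate control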
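Readout is PINK1 immunofluorescence, quantified alongside mitochondrial, cell and nuclear markers by laser-scanning microplate cytometry. Cells from a stable line were exposed to compound titrations (5 concentrations) for 24 hours, with CCCP controls.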
Six1-Eya2 blk: inhibitors of human Six1/Eya2 interaction. activity change, % (no concentration beside the values). actives 0.56% (n = 360,000). AlphaScreen GST-Six1/His-Eya2 binding, biochemical; hits give low values; control for the full effect not named in the record; in the data active = activity change below about -65%; inconclusive = about -30% to -65%; inactive = above about -30%; further: on the % scale 0 is the no-effect control and ±100 the full control effect; compound concentration not given in the record
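Homogeneous AlphaScreen proximity assay pairing GST-Six1 with His-tagged Eya2 (added as 5X mix: 250 nM and 500 nM) in 50 mM Tris pH 8.0, 300 mM NaCl, 1 mM TCEP. Glutathione donor and nickel acceptor beads; 1 h, 37 °C, dark.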
TRPML1 agonist: agonists of human TRPML1 channel; Q9GZU1; TRPML1-expressing cells, Ca2+ dye fluorescence, FDSS; host cell line not named in the record; reference of the full effect not given here; activation, % (test concentration not listed); actives 0.12% (n = 410,000); AID 624414; in the data active = activation above about 50%; inconclusive = about 30% to 50%; inactive = below about 30%; further: 0% is about no effect; the text of the record puts the active cut at 80%
Target sequence (Q9GZU1 whole entry, looked up): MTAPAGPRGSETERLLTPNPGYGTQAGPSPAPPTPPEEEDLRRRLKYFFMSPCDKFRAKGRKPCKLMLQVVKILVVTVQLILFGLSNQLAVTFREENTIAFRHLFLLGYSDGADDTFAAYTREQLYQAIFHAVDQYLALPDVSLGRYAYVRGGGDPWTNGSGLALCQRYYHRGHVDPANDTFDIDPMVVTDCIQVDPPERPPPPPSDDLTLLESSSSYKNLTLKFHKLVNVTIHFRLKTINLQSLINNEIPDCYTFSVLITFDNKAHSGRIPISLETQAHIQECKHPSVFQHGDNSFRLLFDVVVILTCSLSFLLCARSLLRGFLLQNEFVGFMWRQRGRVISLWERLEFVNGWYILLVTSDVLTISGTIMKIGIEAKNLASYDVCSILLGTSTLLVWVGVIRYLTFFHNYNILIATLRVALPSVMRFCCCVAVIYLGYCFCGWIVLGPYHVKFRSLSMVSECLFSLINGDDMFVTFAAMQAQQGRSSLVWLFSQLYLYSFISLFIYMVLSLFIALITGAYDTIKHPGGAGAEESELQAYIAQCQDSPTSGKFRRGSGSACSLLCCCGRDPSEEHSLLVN
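Calcium fluorescence on an FDSS kinetic reader gave the read-out. Tet-induced TRPML1-DL cells were plated overnight, dye-loaded (Ca8 with quencher, 45-90 min, room temperature, dark), then read 110 s after compound addition, and again 110 s after 4uM final 54-4 (EC80).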
TRPML1 blocker: blocks the human TRPML1 channel. Q9GZU1. TRPML1-inducible cells, Ca2+ dye fluorescence, FDSS; hits give low values; inhibition of EC80 agonist-evoked calcium signal. activity change, negative = inhibition, % (concentration not given with the values). actives 0.02% (n = 390,000). AID 624415; in the data active means activity change below about -50%; inconclusive means about -30% to -50%; inactive means above about -30%;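 further: stimulus is agonist 54-4 at its EC80 concentration; on the % scale 0 is the no-effect control and ±100 the full control effect; compound concentration not given in the record; the text of the record puts the active cut at -80%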
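TRPML1-DL cells, Tet-induced overnight (~16 h, 37 °C) at 1,500 cells/well, were loaded with Ca8 no-wash dye plus quencher for 45-90 min at room temperature. Compounds were pinned during FDSS kinetic reading; agonist 54-4 at EC80 (4 uM final) then added.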
D2 ag: human D2 receptor agonism in beta-arrestin assay | DiscoveRx PathHunter D2 beta-arrestin, luminescence, 90 min; 100% = 57 uM dopamine signal | P14416 | actives 0.084% (n = 360,000) | activation, % (test concentration not listed) | AID 624465; in the data active = activation above about 40%; inconclusive = about 15% to 40%; inactive = below about 15%; further: compound concentration not given in the record; the text of the record calls up to 30% inactive
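DiscoveRx PathHunter D2 beta-arrestin cells (2,100/well) attached overnight, then compound-stimulated 90 min at 37 C in HBSS/10 mM HEPES/0.1% Tween-20 buffer; beta-galactosidase complementation read by luminescence after 1 h at ambient temperature. Dopamine 57 uM final (EC100) as control.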
Numbers without * were called inactive; ? = inconclusive; / = no result given; & = joins results of further samples; [ ] = another dose, or the depositor's remark.

SMILES | D2 PAM | PINK1 modulator | Six1-Eya2 blk | TRPML1 agonist | TRPML1 blocker | D2 ag
O=[N+]([O-])c1cccc(-c2nc(-c3ccccc3)no2)c1 | 0 | 6.3% | -2 | -0.3 | -5 | -1.0
COc1ccc(C(=O)CCNc2ccc(C)c(Cl)c2)cc1 | -29 | 9.7% | -4 | -0.6 | -5 | -3.4
CCC(C)S(=O)(=O)c1oc(-c2ccc(F)cc2)nc1S(=O)(=O)c1ccc(F)cc1 (configuration not stated) | / | -0.7% | / | 2.1 | 65 | /
Clc1ccc(NCc2nncn2-c2ccccc2)cc1 | -5 | -4.8% | 3 | 0.1 | 42 | -0.2
CC(C)N(C(=O)Cn1cc(S(=O)(=O)Cc2ccc(C(F)(F)F)cc2)c2ccccc21)C(C)C | / | -0.1% | / | 2.6 | 23 | /
O=c1c2ccccc2c(-c2cccc(C(F)(F)F)c2)nn1-c1ccccc1 | 4 | 17% | 51 | 6.3 | 74 | -1.8
C=C1C(=O)O[C@@H]2[C@H]1CC[C@H](C)[C@]1(O)CCC(=O)[C@@]21C | 2 | -0.7% | 6 | 2.9 | 19 | 6.1
CC(=O)C[C@H]1c2cc(C(F)(F)F)ccc2S(=O)(=O)N1c1ccc(N(C)C)cc1 | -9 | 4.2% | -6 | -0.2&-1.2 | -19 | -0.6
COc1ccccc1CNC(=O)C1CSC2(C)CCC(=O)N12 (configuration not stated) | -1 | 3.6% | 0 | -0.3 | -7 | -2.9
Cc1ccc(/C=C2\CC(C)CC3=C2NC(=S)NC3c2ccc(C)cc2)cc1 (configuration not stated) | -11 | 8.2% | 0 | 1.2 | 30 | -3.7
O=C1c2ccccc2C(Nc2ccccc2)N1Cc1ccc2c(c1)OCO2 (configuration not stated) | -10 | 0.2% | 3 | -0.1 | 0 | -2.5
COc1ccc(CCCc2nnc(SCC(=O)Nc3ccc(C)cc3C)o2)cc1 | / | -0.5% | / | 1.4 | -3 | /
O=C(CSc1ccc(-c2ccccc2)nn1)c1ccccc1 | -14 | -0.6% | 8 | 2.5 | -1 | -4.8
CN(C1=NS(=O)(=O)c2ccccc21)c1ccc(OC(=O)c2ccccc2F)cc1 | -3 | 2.1% | 2 | -0.4 | -2 | -2.7
O=C(NCc1ccc(F)cc1)N1[C@H]2CC[C@@H]1C=C(c1ccc(F)cc1OCc1ccccc1)C2 | -5 | 6.3% | -19 | 1.4 | 2 | -7.7
Cc1ccc(C(N)=Nc2ccccc2)cc1 | -15 | -0.5% | 3 | 8.3 | 5 | -6.7
COc1cc(/C=C/C(=O)Nc2cccc(S(=O)(=O)NC3=NCCCCC3)c2)ccc1OCC#N | -5 | 7.8% | -27 | -0.2 | 7 | -3.0
Cc1ccccc1NC(=O)Oc1cccc(OC(=O)c2ccccc2)c1 | -6 | 1.4% | -2 | 0.0 | -22 | 0.5
O=C(C1CC1)N1CCN(c2nc3ccccc3s2)CC1 | -18 | / | -1 | -0.2 | 9 | -2.1
O=C(CN1CCN(C(=O)C2CCC2)CC1)Nc1ccc(F)cc1 | 0 | -0.7% | -1 | -0.3 | 14 | -4.1
COc1cccc(NC(=O)CN2CCCN(S(=O)(=O)c3ccc(Br)cc3)CC2)c1 | / | 0.1% | / | -0.2 | 72 | /
CCCC(C(=O)Nc1ccc(C)c(S(=O)(=O)N2CCOCC2)c1)c1ccccc1 (configuration not stated) | 3 | 4.6% | 3 | 3.5 | 21 | 1.9
COC(=O)c1cc2c(cc1NC(=O)c1cnn(-c3ccccc3)c1-n1cccc1)OCO2 | / | 1.0% | / | -0.5 | 35 | /
Cc1cc2c(=O)n(NC(N)=O)c(C)nc2s1 | -16 | -2.1% | 3 | -0.4 | -12 | 1.2
Cc1nn(CC(=O)NC2C(=O)N3C(C(=O)O)=C(CSc4nnnn4C)CSC23)cc1Br (configuration not stated) | -2 | 0.2% | 2 | -0.2 | 0 | 3.5
COc1cc(/C=C/C(=O)O)cc(S(=O)(=O)NCc2ccc3c(c2)OCO3)c1OC | -5 | -0.5% | 13 | 0.0 | 9 | -3.8
Cn1ncc(Cl)c(Oc2ccc(Cl)cc2)c1=O | 15 | 1.7% | 3 | 0.8 | -6 | -2.7
CCOc1ccc(Cl)cc1S(=O)(=O)n1cnc2cc(C)c(C)cc21 | 3 | 9.8% | 1 | 0.5 | 6 | -2.7
O=C(NCCSc1ccccc1)c1ccc(CN2CCOCC2)cc1 | -14 | 1.9% | 6 | -0.8 | 8 | -4.1
O=C(c1ccccc1)N1CCN(C(=O)N2CCCCC2)CC1 | -25 | 0.2% | 1 | 0.3 | 30 | -4.1

Single records, as listed above. Values in the order: D2 PAM | PINK1 modulator | Six1-Eya2 blk | TRPML1 agonist | TRPML1 blocker | D2 ag
Shown for O=C(CN1CCN(C(=O)C2CCC2)CC1)Nc1ccc(F)cc1 : 0 | -0.7% | -1 | -0.3 | 14 | -4.1
Shown for Cc1ccc(/C=C2\CC(C)CC3=C2NC(=S)NC3c2ccc(C)cc2)cc1 (configuration not stated) : -11 | 8.2% | 0 | 1.2 | 30 | -3.7
Shown for CCCC(C(=O)Nc1ccc(C)c(S(=O)(=O)N2CCOCC2)c1)c1ccccc1 (configuration not stated) : 3 | 4.6% | 3 | 3.5 | 21 | 1.9
Shown for Cc1cc2c(=O)n(NC(N)=O)c(C)nc2s1 : -16 | -2.1% | 3 | -0.4 | -12 | 1.2
Shown for O=C(NCCSc1ccccc1)c1ccc(CN2CCOCC2)cc1 : -14 | 1.9% | 6 | -0.8 | 8 | -4.1

Next entries follow.
SMILES | D2 PAM | PINK1 modulator | Six1-Eya2 blk | TRPML1 agonist | TRPML1 blocker | D2 ag
Brc1ccc(N=NNc2ccccc2)cc1 | -2 | 8.8% | -17 | -0.9 | -3 | -2.1
Cc1cccc(N2CCN(CC(O)COc3ccccc3)CC2)c1 (configuration not stated) | -17 | 4.1% | -11 | 1.1 | 5 | 2.7
Cn1c(=O)cc(NCCc2ccccc2)[nH]c1=O | -4 | 4.9% | 3 | -0.2 | 19 | 0.9
COC(CNC(=O)c1ccc(N2CCc3ccccc32)c([N+](=O)[O-])c1)OC | 9 | 11% | ? | 2.0 | 17 | 2.3
Cc1c(NC(=O)C(C)OC(=O)c2cccs2)c(=O)n(-c2ccccc2)n1C (configuration not stated) | -5 | -1.2% | -4 | 0.9 | -5 | -13
FC(F)(F)c1cccc(CNc2ncccc2-c2nc3cc(Cl)ccc3o2)c1 | -1 | -1.7%[38.3 µM] | 12 | 0.1 | -1 | -2.6
N#CC(C#N)=C/C(C#N)=C(/N)N1CCN(c2ccc(Cl)cc2)CC1 | 9 | 18%[38.3 µM] | -2 | 0.2 | 14 | 6.0
COCCN(C(=O)Nc1ccccc1)C(C)c1cccnc1 (configuration not stated) | 1 | 2.4% | 1 | -0.3 | -4 | -4.6
O=C(c1ccco1)N1CCN(C(=S)Nc2ccccc2Cl)CC1 | 6 | 1.1% | 2 | 0.0 | -3 | 0.2
Cc1ccc(S(=O)(=O)Nc2ccc(Cl)cn2)cc1 | -4 | 0.2% | 2 | -0.1 | 16 | 0.5
Cc1c(OC(C)C(=O)N2C[C@H]3C[C@@H](C2)c2cccc(=O)n2C3)ccc2c3c(c(=O)oc12)CCCC3 (some centres not stated) | -1 | 2.9% | -6 | 0.3 | 21 | -0.4
Cc1ccc2cccc(NC(=S)NC(=O)c3ccnn3C)c2n1 | -19 | 0.3% | -9 | 3.0 | 42 | -3.8
Cc1cccc(OCCCCc2c(C)n[nH]c2C)c1C | 0 | -1.3%[38.3 µM] | -2 | -0.6 | 7 | 2.9
Cc1nn(-c2ccc([N+](=O)[O-])cc2)c2c1C(c1cccc(Br)c1)N1C(=N2)C(=O)Nc2ccccc21 (configuration not stated) | -17 | 2.9% | 1 | 3.0 | 18 | -6.5
CC1CCN(C(=O)Cn2c(=O)n(CCc3ccccc3)c(=O)c3ccccc32)CC1 | -5 | 3.1% | 1 | 1.5 | -24 | -3.3
CCCc1ccc(C(C)NC(=S)NCc2ccc(F)cc2)cc1 (configuration not stated) | -19 | ? | -13 | 18 | 3 | -6.9
CCOc1ccc(/C=C/C(=O)Nc2ccc3nc(N(CC)CC)cc(C)c3c2)cc1OC | / | 0.6% | / | 1.3 | 19 | /
O=S(=O)(Cc1ccccc1)NCC1CCCN(Cc2ccc3nonc3c2)C1 (configuration not stated) | -11 | -1.2% | 0 | -0.5 | 2 | 2.8
CCC1Oc2ccc(C)cc2N(CC(=O)N(Cc2ccc3c(c2)OCO3)CC2CCCO2)C1=O (configuration not stated) | -14 | 15%[38.3 µM] | -9 | 1.9 | 15 | 0.4
COc1ccc(S(=O)(=O)NCC2CC3C=CC2C3)cc1OC (configuration not stated) | -7 | -1.8% | 1 | 0.8 | 2 | -5.8
CC1(C(=O)NS(=O)(=O)c2ccccc2Cl)CCN1C(=O)CCC1CCCC1 (configuration not stated) | 4 | 1.3% | 39 | -0.8 | / | 0.9
COc1cc(/C=C/C(=O)c2ccc3c(c2)OCO3)cc(OC)c1OC | 0 | 5.1% | 2 | -0.3 | 15 | 1.8
CN(C(=O)C1CCCN(c2ncnc3c2nc2n3CCCCC2)C1)c1ccccc1F (configuration not stated) | / | 1.4% | / | -0.9 | -8 | /
C#CCOCCOCCOCCNc1nc(N2CCN(C(=O)[C@H](CCCCN)n3cc([C@@H](N)CO)nn3)CC2)nc(N2CCN(C(=O)[C@H](CCCCN)n3cc([C@@H](N)CC(C)C)nn3)CC2)n1 | -5 | 0.1% | 0 | 1.5 | -20 | -1.1
CCOc1ccc(S(=O)(=O)NCCCn2ccnc2)cc1 | -4 | -1.0% | 3 | 0.7 | -3 | -2.0
COC(=O)c1ccc(Cn2cnc3c(cnn3-c3ccc(C)c(C)c3)c2=O)o1 | -4 | -2.2%[38.3 µM] | -7 | 4.8 | 5 | -1.1
COc1ccc(NC(=O)CN(c2ccc(F)cc2)S(=O)(=O)c2ccccc2)c(OC)c1 | -5 | 2.4% | -8 | 2.2 | 27 | -6.9
O=C(Nc1cccnc1)C1Cc2c(-c3ccccc3Oc3ccccc3)ccnc2O1 (configuration not stated) | -11 | -1.0% | -6 | -0.8 | 31 | 1.8
COc1ccc(-n2nc3c(c2NC(=O)C24CC5CC(CC(C5)C2)C4)CS(=O)C3)cc1 (configuration not stated) | -6 | 1.8% | 3 | -0.8 | 11 | -2.1
COc1ccc(N/C=C\C(=O)c2ccc3c(c2)OCO3)cc1OC | 7 | 6.6% | -23 | -0.8 | -10 | 0.1
Cc1cccc(NC(=O)NCCn2c(=O)oc3ccc(C)cc32)c1 | / | 0.0% | / | -0.7 | -9 | /
Cc1cc(CNC(=O)C(C)n2nc(C)c([N+](=O)[O-])c2C)c2ccccc2n1 (configuration not stated) | 1 | -0.3% | -2 | 0.1 | -7 | -0.6

Compounds were not picked by outcome. About 1% of those tested had a hit in this group.
